# Cruzain noTriton: inhibitors of Trypanosoma cruzi cruzain without detergent; P25779; purified cruzain, Z-FR-AMC fluorescence, no detergent; Potency, µM, for the others: max response, negative = inhibition, hits mostly inhibitors; 2.3% of 200,000 active; AID 1476;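 also: plate controls were enzyme without inhibitor for no effect and buffer without enzyme for full effect; nearly all actives have a fitted effect of over 40% in size; top concentration of the series not given in the record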
# Target sequence (P25779 123-467 limits assumed): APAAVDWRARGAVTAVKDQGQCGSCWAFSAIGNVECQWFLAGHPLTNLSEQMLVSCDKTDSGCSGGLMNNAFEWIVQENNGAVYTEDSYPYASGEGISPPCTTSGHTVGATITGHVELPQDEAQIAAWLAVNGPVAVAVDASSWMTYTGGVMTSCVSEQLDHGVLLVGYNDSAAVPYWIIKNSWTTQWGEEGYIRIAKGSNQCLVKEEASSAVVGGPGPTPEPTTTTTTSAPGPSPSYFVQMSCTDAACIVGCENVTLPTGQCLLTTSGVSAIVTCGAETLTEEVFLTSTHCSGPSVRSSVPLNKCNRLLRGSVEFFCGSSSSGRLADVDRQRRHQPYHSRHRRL
#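 Purified cruzain at 1.5 nM, pre-incubated 15 min with compound at room temperature in 100 mM sodium acetate pH 5.5, 5 mM DTT, 0.00005% Triton X-100. Reaction started with 2 uM Z-FR-AMC; AMC fluorescence increase over 60 s gives rate.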
# Cruzain Triton: blocks cruzain activity in presence of Triton detergent. purified cruzain, Z-FR-AMC fluorescence, 0.01% Triton. Potency, µM, without a hit: max response, negative = inhibition, actives largely listed as inhibitors. 0.43% of 200,000 active. P25779;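 also: plate controls were neutral wells for no effect and buffer without enzyme for full effect; nearly all actives have a fitted effect of over 40% in size; top concentration of the series not given in the record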
#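 Detergent-containing run (0.01% Triton X-100) in acetate buffer pH 5.5 with 5 mM DTT: enzyme at 1.5 nM final, 15 min compound preincubation at room temperature, then 2 uM Z-FR-AMC substrate. Activity taken as 60 s fluorescence increase at 360/450 nm.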
# RE007 growth inh: less growth of the S. pombe RE007 Vpr strain | S. pombe RE007 Vpr strain, BacTiter-Glo ATP luminescence, 24 h; control for the full effect not named in the record | Potency, µM (highest dose often 92.2 µM), inactives show at the top dose activity change, negative = less growth | 0.21% of 360,000 active; active = well fitted falling curve with a large enough effect; inconclusive = small, poorly fitted or top-dose-only effect; inactive = no such curve, though single readings can be large or run the other way;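 also: % is scaled to controls: 0 for no effect and ±100 for the full control effect; nearly all actives have a fitted effect of over 50% in size; the assay follows cell death caused by Vpr and the record does not say whether a fall means rescue or toxicity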
#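 Fission yeast RE007 carrying one integrated HIV-1 vpr copy, seeded at OD 0.01 in PMG+AL medium with 23 nL pinned compound. Grown 24 h at 30 degrees; viability read by BacTiter-Glo luminescence after 5 min.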
# 2A StopGo: lowers the luciferase signal of an FMDV 2A StopGo reporter; 1.2% of 410,000 active; human cells with a luciferase reporter of 2A StopGo recoding; control for the full effect not named in the record; Potency, µM (titrated, usually from 57.9 µM), without a hit: at the highest dose signal change, negative = less light; active = well fitted falling curve with a large enough effect; inconclusive = small, poorly fitted or top-dose-only effect; inactive = no such curve, though single readings can be large or run the other way; tested in HEK293T cells; also: % is scaled to controls: 0 for no effect and ±100 for the full control effect; nearly all actives have a fitted effect of over 45% in size; luciferase light after 4 h
# MARV entry inh: inhibitors of Marburg virus binding or cell entry | Marburg virus pseudotyped entry inhibition, cell reporter; control for the full effect not named in the record; about a third of the inactives were read at about 46 µM | Potency, µM (top dose mostly 37.8 µM), inactives show at the top dose activity change, negative = inhibition, actives largely listed as inhibitors | 1.8% of 300,000 active; active = well fitted inhibition curve with a large enough effect; inconclusive = small, poorly fitted or top-dose-only effect, or effect the other way; inactive = flat fitted curve, though single readings scatter; tested in HEK293 cells; about a fifth of its hits are not listed in these tables; also: % is scaled to controls: 0 for no effect and ±100 for the full control effect; luciferase read-out
# Lassa entry inh: Lassa virus entry inhibition | Potency, µM (doses to about 37.9 µM), inactives show at the highest dose activity change, negative = inhibition, most hits filed as inhibitors | 1.2% of 300,000 active | Lassa virus pseudotype entry inhibition, cell reporter; control for the full effect not named in the record | AID 540256; active means well fitted inhibition curve with a large enough effect; inconclusive means small, poorly fitted or top-dose-only effect, or effect the other way; inactive means flat fitted curve, though single readings scatter; tested in HEK293 cells; also: % is scaled to controls: 0 for no effect and ±100 for the full control effect; nearly all actives have a fitted effect of over 50% in size; luciferase read-out
# SARS PLpro yeast: inhibitors of SARS-CoV papain-like protease in yeast; S. cerevisiae expressing SARS-CoV PLpro, growth rescue; control for the full effect not named in the record; Potency, µM (top dose mostly 32.9 µM), for the others: at the highest dose activity, positive = growth rescue; 0.19% of 330,000 active; AID 485353; active means well fitted rising curve with a large enough effect; inconclusive means small, poorly fitted or top-dose-only effect; inactive means no such curve, though single readings can be large or run the other way; also: 0% is about no effect; nearly all actives have a fitted effect of over 55% in size; growth read by luminescence after 48 h
# NS1 function inh: blocks influenza NS1 protein function | S. cerevisiae slowed by influenza A NS1, growth recovery by OD600 | Potency, µM (top dose mostly 46.1 µM), for the others: at the highest dose activity, positive = more growth | 0.4% of 270,000 active | AID 2326; active means well fitted rising curve with a large enough effect; inconclusive means small, poorly fitted or top-dose-only effect; inactive means no such curve, though single readings can be large or run the other way; also: nearly all actives have a fitted effect of over 50% in size
#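 OD600 was taken as the measure of yeast growth restored by compound in an NS1-expressing S. cerevisiae strain. Cells had been washed out of glucose medium and diluted 1:100 into galactose -URA medium, pH 6.0.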
# Starred values were filed as active, the others as inactive; ? = inconclusive; / = not tested or not shown; & = joins results of further samples; [ ] = dose if it differs, or a comment. Unless noted, calls follow the shape of the dose curve; as a rule, active = well fitted curve in the direction sought with a large enough effect; inconclusive = small, poorly fitted or top-dose-only effect, or another doubt; inactive = no such curve, though single readings can be large; an effect the other way counts as inactive or inconclusive. Potency is read from the fitted curve at half-maximal effect.
SMILES,Cruzain noTriton,Cruzain Triton,RE007 growth inh,2A StopGo,MARV entry inh,Lassa entry inh,SARS PLpro yeast,NS1 function inh
CCOC(=O)/C(=N\Nc1ccccc1Cl)N1CCN(C)CC1,4.6%,-2.0%,150.2%,0.0%,?,6.3%,-6.7%,-3.7%
Cc1ccccc1-c1nc(CN2CCC(C(=O)NCCCN3CCOCC3)CC2)c(C)o1,-4.4%,-0.1%,4.4%,-7.2%,?,?,7.7%,1.8%
COc1ccccc1N1CCN(C(=O)c2cc(C3CC3)on2)CC1,-1.9%,1.5%,15.6%,-4.9%,/,/,-0.2%,-22.3%
O=C(C1CCCO1)N1CCN(c2c3c(nc4cc(-c5ccc(F)cc5)nn24)CCC3)CC1 (centres undefined),?,-6.1%,-13.8%,/,-4.5%&2.0%,14.5%,6.7%,-4.7%
CCOC(=O)c1ccc(N=C2SC(C(=O)Nc3ccccc3)CC(=O)N2C)cc1 (centres undefined),-3.4%,-8.6%,/,-14.7%,/,16.0%[46.1 µM],/,/
COc1cc(C2N(c3ccc(Cl)cc3)C(=O)C3CCCN32)cc(OC)c1OC (centres undefined),-1.0%,6.2%,-8.7%,-2.5%,/,/,5.8%,-18.4%
O=C(N/N=C\c1ccccc1)c1ccccc1-n1cccc1,/,/,30.6%,-11.6%,5.3%[46.1 µM],5.5%,1.0%,/
CC(=O)c1ccc(N2CCN(C(=S)Nc3ccccc3)CC2)cc1,-24.6%,-5.6%,28.2%,-4.6%,-8.2%,13.1%,0.6%,13.5%
CCC12CN3CC(CC)(CN(C1)C3c1ccc(OC(C)C)cc1)C2=O (centres undefined),11.4%,-1.3%,12.1%,-16.7%,?,-23.2%,-2.7%,-13.1%
Cc1ccc2oc(-c3ccc(NC(=O)c4ccncc4)cc3O)nc2c1,/,/,19.8%,51.6%[activator],?,13.7%,-0.2%,-6.2%
O=C(Cc1ccc(Cl)cc1)Nc1ccc(SC(F)F)cc1,-12.9%,-6.2%,/,14.1%,?,-18.6%,-24.7%,-0.9%
O=C1CC(C(=O)O)c2ccccc2N1 (centres undefined),4.7%,1.5%,7.2%,9.6%,-0.9%,0.2%,2.5%,1.0%
Cc1ccc(C2CC(c3ccc(C)cc3)n3nc(N)nc3N2)cc1 (centres undefined),-4.6%,-8.7%,9.0%,-22.3%,-3.0%,/,-4.1%,6.7%
Cc1cccc(-n2c(/C=C/c3c[nH]c4ccccc34)nc3ccccc3c2=O)c1,-1.4%,-2.4%,/,-1.0%,/,-6.9%[46.1 µM],/,/
COc1ccc(C(=O)NCC(O)CN2CCOCC2)cc1[N+](=O)[O-] (centres undefined),/,/,5.7%,-13.0%,/,/,-5.9%,-1.2%
COc1ccc(C(=O)Nc2cccc(NC(=O)c3ccc(OC)c(OC)c3)n2)cc1OC,/,/,2.6%,6.3%,/,/,0.2%,-22.7%
COc1cccc(C(C(=O)NC2CCCC2)N(CC2CCCO2)C(=O)Cc2cccs2)c1 (centres undefined),/,/,-13.0%,14.9%,-27.1%[46.1 µM],5.0%[46.1 µM],0.9%,4.2%
CC(=O)CCc1c(C)nc2ccc(C(=O)O)cc2c1Cl,3.4%,-4.2%,24.6%,35.9%[activator],6.5%,26.3%,?,10.4%
Cc1nnsc1C(=O)N/N=C/c1cccc(C(F)(F)F)c1,/,/,0.2%,24.5%,-0.3%[46.1 µM],1.4%,1.4%,/
COc1ccc(S(=O)(=O)NCc2ccccc2)cc1,5.8%,-2.0%,1.9%,133.0%[activator],-14.6%,0.5%,-0.6%,-0.6%
Cc1ccc2c(c1)C(c1ccccc1)N(C(=O)c1ccccc1[N+](=O)[O-])CC(=O)N2 (centres undefined),/,/,9.0%,-24.9%,?,?,0.4%,-0.7%
O=C(c1cc(-c2cccs2)nn1-c1ccccc1)N1CCN(S(=O)(=O)c2ccccc2)CC1,/,/,-11.8%,?,?,?,-1.9%,/
CC1CCN(C(=O)CN2CCSc3ccc(S(=O)(=O)N(C)C)cc32)CC1,8.0%,-2.9%,/,-23.0%,/,0.1%[46.1 µM],/,/
COc1ccc(-c2nnc(SCC(=O)N/N=C/c3ccccc3C(=O)O)n2-c2ccc(Cl)cc2)cc1,/,/,-14.3%,4.1%,/,/,-0.5%,?
O=C(Nc1nnc2n1CCS2)c1ccco1,/,/,-7.8%,-6.6%,0.5%[46.1 µM],0.7%,8.6%,?
Cc1ccc(C(=O)NNC(=O)C2CCN(c3nccc(C)n3)CC2)cc1,-2.0%,3.9%,6.9%,/,4.1%,?,-2.8%,-3.6%
Cc1ccc(C)c(CSc2nnc3[nH]c(=O)cc(-c4ccccc4)n23)c1,-9.9%,-1.0%,/,?,/,19.5%[46.1 µM],/,/
O=C(c1ccccc1)c1cn(CC(=O)N2CCCC2)c2ccccc12,-6.6%,0.3%,5.7%,-21.3%,/,/,6.7%,-3.2%
CCOC(=O)c1ccc(N2C(=O)c3n[nH]c(C)c3C2c2ccc(OC)c(OC)c2)cc1 (centres undefined),?,-1.3%,-4.3%,-2.9%,-20.3%,-8.9%,-5.5%,-12.6%
CCc1ccc(NC(=O)CCc2nc3sc4c(c3c(=O)[nH]2)CCCC4)cc1,/,/,4.5%,5.1%,-29.7%,-15.7%,0.1%,/
O=C(COc1ccccc1)N1CCN(C2CCCC2)CC1,2.5%,0.9%,4.0%,-2.2%,2.2%,2.4%,1.5%,-7.8%
CCCn1c(CN2CCN(C(=O)OCC)CC2)nc2cc(NC(=O)CC)ccc21,/,/,1.4%,-0.8%,?,-11.7%,-0.9%,-1.0%
O=C1CC(c2ccc(C(F)(F)F)cc2)c2c(c3ccccc3oc2=O)O1 (centres undefined),-7.1%,-1.7%,/,-12.2%,/,-14.7%[46.1 µM],/,/
CC(C)COc1ccc2[nH]c3c(c2c1)CCCC3=O,-29.4%,-5.5%,4.9%,32.4%[activator],3.5%,?,?,-6.5%
COc1ccc(/C(C)=N/NC(=S)NCc2ccco2)cc1,-5.5%,-8.7%,-13.2%,-10.7%,-10.7%,2.06µM*,-26.3%,-43.4%
CC(=O)OCC#CCSc1nnc(-c2cccc(Br)c2)o1,-9.9%,-5.4%,/,16.1%,-10.8%[46.1 µM],-1.4%[46.1 µM],/,/
O=C(Nc1cccc(C(F)(F)F)c1)C1C2CC3OC(=O)C1C3C2 (centres undefined),?,3.2%,7.7%,-0.2%,-1.6%,1.3%,2.6%,-7.2%
CCn1cc(SCC(=O)N2CCOCC2)c2ccccc21,-2.4%,-6.2%,9.5%,50.7%[activator],/,/,3.6%,-11.5%
Cc1cc(C(=O)N2CCN(c3ccccc3F)CC2)c2c(C)nn(-c3ccccc3)c2n1,5.7%,-10.4%,/,-0.3%,/,-10.2%[46.1 µM],/,/
Cc1cc(NC(=O)C2CCCN(S(=O)(=O)c3c(C)noc3C)C2)n[nH]1 (centres undefined),10.3%,1.7%,-4.9%,-24.5%,/,/,2.8%,2.7%
Clc1ccc2c(c1)[C@H]1OCC[C@H]1[C@@H](c1ccco1)N2,-17.1%,-11.1%,-11.1%,30.1%[activator],/,/,-9.3%,-3.8%
COc1cc(-c2cc(C(=O)O)c3cc4c(cc3n2)OCCO4)cc(OC)c1OC,-3.7%,-6.6%,13.6%,/,0.5%,3.5%,-1.2%,0.1%
Nc1c(-c2nc(-c3ccncc3)no2)nnn1CC(=O)Nc1ccccc1,23.8%,-2.7%,/,-1.0%,/,7.1%[46.1 µM],/,/
CC(Oc1ccccc1)C(=O)Nc1nnc(S(=O)(=O)N(C)c2ccccc2)s1 (centres undefined),/,/,5.9%,?,/,/,?,4.6%
COc1ccc(-c2csc(N(CCCN(C)C)C(=O)c3ccccc3C)n2)cc1,/,/,-27.4%,1.1%,?,10µM*,3.1%,-19.3%
Cc1ccc(C(=O)Nc2ccccc2C(=O)N2CCCCC2C)cc1 (centres undefined),/,/,8.1%,-11.7%,17.0%,?,1.1%,-18.9%
NS(=O)(=O)c1ccc(Sc2ccc3ccccc3c2)nc1,/,/,0.7%,-26.7%,-8.5%[46.1 µM],?,-6.0%,-29.5%
CN(CC(=O)Nc1ccccc1Br)C(=O)CNC(=O)c1ccc2c(c1)OCO2,/,/,2.3%,-6.5%,?,2.5%,1.0%,/
Cc1ccc(NC(=O)c2cccc(S(=O)(=O)N(C)c3ccccc3)c2)cc1S(=O)(=O)N1CCOCC1,-13.9%,-2.2%,-2.1%,?,?,?,-3.9%,?
CCC(=O)N1CCc2cc(S(=O)(=O)CCC(=O)NCc3ccccc3Cl)ccc21,-10.9%,-4.0%,/,-11.3%,?,-14.7%[46.1 µM],/,/
# (further entries)
SMILES,Cruzain noTriton,Cruzain Triton,RE007 growth inh,2A StopGo,MARV entry inh,Lassa entry inh,SARS PLpro yeast,NS1 function inh
CCCCN(CCCC)Cc1ccc(C(=O)NNC(=O)Nc2ccc(F)cc2)o1,/,/,-5.9%,1.8%,?,25.6%[46.1 µM],3.5%,/
CCOC(=O)N1CCC(NS(=O)(=O)c2cc3c(cc2Br)CCN3C(=O)CC)CC1,/,/,-8.5%,42.4%[activator],6.9%,2.8%,/,/
Cc1ccc(Nc2nc(N)nc(CN3CCN(C)CC3)n2)cc1C,-0.1%,6.9%,/,/,-5.6%,/,-1.4%,-1.6%
COc1ccccc1C(=O)NCc1ccco1,/,/,-1.5%,-8.5%,/,/,1.0%,4.4%
COc1ccccc1NC(=O)c1cc(Br)ccc1Cl,/,/,-9.9%,8.3%,1.4%[46.1 µM],/,-7.0%,/
CN(C)c1ncnc2c1ncn2C1CCCO1 (centres undefined),/,/,0.4%,-2.1%,-5.1%[46.1 µM],-3.1%[46.1 µM],/,/
CCC(=O)NNC(=O)Cc1c(C)n(C(=O)c2ccc(Cl)cc2)c2ccc(OC)cc12,/,/,0.1%,-11.7%,-19.9%[46.1 µM],-1.7%,0.6%,-6.4%
COc1ccc(CNS(=O)(=O)c2ccc(-n3cnnn3)c(OC)c2)cc1,/,/,-4.4%,3.8%,17.0%[46.1 µM],5.1%,-1.5%,-2.0%
